Rango-impB inh: qHTS Assay for Inhibitors of Rango (Ran-regulated importin-beta cargo) - Importin beta complex formation; Rango CFP/YFP FRET sensor + importin beta, 45 min; Potency, µM (doses to about 92.2 µM), for inactives: top-dose inhibition of complex formation; 340,000 compounds, 0.031% hits; active = rising FRET ratio curve, often small or poorly fitted; inconclusive = mostly compound fluorescence or quenching in the first reads; inactive = flat curves in all reads;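 note: potency is the fitted concentration of half-maximal effect; 0% = DMSO wells and 100% = buffer wells lacking importin beta; nearly all actives have a fitted effect of over 15% in size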
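FRET biosensor Rango (snurportin 1 IBB between N-terminal EYFP and C-terminal Cerulean), 50 nM in PBS/1 mM DTT/0.02% Tween-20/0.1% BSA, preincubated 5 min RT with compound; 0.125 microM importin beta added, 45 min RT, CFP/YFP FRET ratio read.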
GLA inh pH 4.5: qHTS Assay for Inhibitors of Human alpha-Galactosidase at pH 4.5; AID 1467, 2008; activity change, negative = inhibition, % at 105 µM; Alpha-galactosidase A (Homo sapiens), P06280; 230,000 tested, under 10 active; purified enzyme, 4-MU-alpha-Gal fluorescence, pH 4.5; inconclusive = small, poorly fitted or top-dose-only inhibition, or a rising curve; inactive = flat fitted curve, though single readings scatter; no compound was filed as active;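 note: 0% = full activity with enzyme and -100% = basal without enzyme; dose as in the result columns while the protocol names 77 µM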
Target sequence (P06280 whole entry, looked up): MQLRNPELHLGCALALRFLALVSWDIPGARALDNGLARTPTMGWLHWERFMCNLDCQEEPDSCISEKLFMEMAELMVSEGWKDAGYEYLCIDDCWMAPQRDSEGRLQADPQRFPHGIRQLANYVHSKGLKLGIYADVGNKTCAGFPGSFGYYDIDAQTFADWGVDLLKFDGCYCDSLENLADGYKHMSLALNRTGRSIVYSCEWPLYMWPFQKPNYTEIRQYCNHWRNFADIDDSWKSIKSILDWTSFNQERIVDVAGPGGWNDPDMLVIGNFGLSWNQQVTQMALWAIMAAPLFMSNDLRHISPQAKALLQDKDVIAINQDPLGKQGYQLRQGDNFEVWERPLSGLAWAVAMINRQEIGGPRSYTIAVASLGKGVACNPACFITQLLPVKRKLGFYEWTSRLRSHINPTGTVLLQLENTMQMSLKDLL
miR-21 FLuc: qHTS Assay for Modulators of miRNAs and/orActivators of miR-21; HeLa miR-21 FLuc reporter, luciferase, 48 h; Potency, µM (doses to about 38.3 µM), without a hit: at the highest dose reporter change, positive = more light; 340,000 tested, under 10 active; active = well fitted rising curve with a large enough effect; inconclusive = small, poorly fitted or top-dose-only effect; inactive = no such curve, though single readings can be large or run the other way;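 note: % of control where 0% means no effect; miR-21 action dims this reporter so a rising signal means less miR-21 action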
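HeLa miR-21-FLuc reporter line, endogenous miR-21; 2000 cells/well in DMEM/10% FBS; compound titration up to ~40uM final, 48 h, 37 degree Celsius; luciferase detection reagent, 15 min lysis, CCD luminescence.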
Rango dissoc inh: qHTS Assay for Inhibitors of RanGTP induced Rango (Ran-regulated importin-beta cargo) - Importin beta complex dissociation; AID 540253, 2011; 340,000 compounds, 0.071% hits; Biochemical FRET Rango-importin beta, RanGTP-induced dissociation; Potency, µM (series often up to 46.1 µM), without a hit: top-dose activity change, negative = inhibition; active means falling FRET ratio curve, often poorly fitted, with flat reads before Ran was added; inconclusive means other falling curves, or compound fluorescence or quenching; inactive means flat or rising ratio curve;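 note: potency is the fitted concentration of half-maximal effect; % of control where 0% means no effect; nearly all actives have a fitted effect of over 45% in size; -100% = wells without RanGTP and RCC1; the record marks most hits as doubtful in a second field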
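FRET read at 45 min, room temperature: inhibitors block the CFP/YFP signal rise when RanGTP (0.6 uM Ran, 2 mM GTP, 0.2 uM RCC1) frees Rango (0.1 uM) from importin beta (0.25 uM). Pre-read after 5 min compound exposure flags interference.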
Active calls of the source: *; ? = inconclusive; · = no result given; & = joins results of further samples; [ ] = dose if it differs, or a comment. The list is partial. The share of hits here may be higher or lower than overall.

Letters: A = Rango-impB inh; B = GLA inh pH 4.5; C = miR-21 FLuc; D = Rango dissoc inh
O=C1N/C(=C/c2cccn2-c2ccc(F)cc2)C(=O)N1Cc1ccccc1
  A = ?; B = 16; C = -4%; D = ?
CC1(OC(=O)CCc2ccccc2)C(=O)C=C2C=C(c3ccc(C#N)cc3)N(Cc3ccco3)C=C2C1=O (stereo not given)
  A = ?; B = 1&-3; C = 0%; D = ?
CCOc1ccccc1OCCC(=O)OCC(=O)c1ccc[nH]1
  A = 0.8%; B = 3; C = -2%; D = 3%
CCOc1ccc(OCC)c(NC(=O)CCCN2C(=S)NC(C)(C)CC2C)c1 (stereo not given)
  A = 6.8%; B = 6; C = 0%; D = 3%
Cc1cccc(C2c3[nH]c4ccccc4c3CCN2C(=O)c2cn(C)c3ccccc3c2=O)n1 (stereo not given)
  A = -4.5%; B = 0; C = -3%; D = -3%
N#Cc1cc2c(nc1SCc1ccccc1)CCCC2=O
  A = 4.0%; B = -4; C = -11%; D = -4%
Cc1nc(-c2ccc(Cl)cc2)sc1C1(C)CC(c2cccc(Cl)c2)=NO1 (stereo not given)
  A = 0.2%; B = ·; C = -15%; D = 14%
CCCOc1ccc(NC(=O)C2OC3OC(C)(C)OC3C3OC(C)(C)OC23)cc1 (stereo not given)
  A = ·; B = 1; C = -7%; D = ·
CN(CC(=O)Nc1ccccc1C(F)(F)F)C(=O)CN1C(=O)C2CCCCC2C1=O (stereo not given)
  A = 0.4%; B = ·; C = ·; D = 6%
Cc1ccc(NC(=O)CSc2nnc(-c3cccs3)n2Cc2ccco2)cc1
  A = -14%; B = -7; C = -6%; D = -1%
Cc1c(Nc2cc(Cl)c3nonc3c2[N+](=O)[O-])c(=O)n(-c2ccccc2)n1C
  A = 2.8%; B = -10; C = ?; D = 18%
O=C(CN1C(=O)c2ccccc2C1=O)NCCOc1ccccc1
  A = 0.4%; B = -3; C = -1%; D = -13%
CN(C(=O)C1CCCO1)c1nnc(-c2ccncc2)s1 (stereo not given)
  A = -1.6%; B = 6; C = -5%; D = 14%
N#Cc1c(-c2ccccc2)nc(SCC(=O)NC2CCCCC2)[nH]c1=O
  A = -0.2%; B = 1[21.1 µM]; C = 6%; D = -14%
COc1ccccc1CNC(=O)C(c1ccccc1)c1ccccc1
  A = -1.4%; B = ·; C = 0%; D = ?

Some of these compounds in order of count of non-hydrogen atoms, falling.
Letters: A = Rango-impB inh; B = GLA inh pH 4.5; C = miR-21 FLuc; D = Rango dissoc inh
Cc1cccc(C2c3[nH]c4ccccc4c3CCN2C(=O)c2cn(C)c3ccccc3c2=O)n1 (stereo not given)
  A = -4.5%; B = 0; C = -3%; D = -3%
CN(CC(=O)Nc1ccccc1C(F)(F)F)C(=O)CN1C(=O)C2CCCCC2C1=O (stereo not given)
  A = 0.4%; B = ·; C = ·; D = 6%
CCCOc1ccc(NC(=O)C2OC3OC(C)(C)OC3C3OC(C)(C)OC23)cc1 (stereo not given)
  A = ·; B = 1; C = -7%; D = ·
N#Cc1c(-c2ccccc2)nc(SCC(=O)NC2CCCCC2)[nH]c1=O
  A = -0.2%; B = 1[21.1 µM]; C = 6%; D = -14%

Further results follow:
Letters: A = Rango-impB inh; B = GLA inh pH 4.5; C = miR-21 FLuc; D = Rango dissoc inh
Cc1cc(S(=O)(=O)Nc2ccc(C(=O)NCCCN3CCOCC3)cc2)ccc1F
  A = 1.7%; B = ·; C = ·; D = 12%
CCCc1cc(=O)oc2cc(OCc3cccc(OC)c3)c(Cl)cc12
  A = -1.7%; B = -3; C = -5%; D = -21%
CCOc1ncccc1C(=O)OCc1ccc(C#N)cc1
  A = -3.6%; B = 2; C = 3%; D = 4%
COc1cc(OC)cc(-c2c(C#Cc3ccsc3)c3cc(-c4ccc(OC)cc4F)ccc3n2C)c1
  A = ?; B = ·; C = ·; D = ?
NC(=O)COC(=O)c1ccc(S(=O)(=O)N2CCCCCC2)cc1
  A = -1.2%; B = -7; C = -7%; D = 3%
CCOC(=O)N=S(N)(=O)c1ccc(Cl)cc1 (stereo not given)
  A = 5.4%; B = 9; C = -3%; D = 19%
COc1ccc(CNC(=O)Nc2cccc(C)c2)cc1
  A = 0.1%; B = 1; C = -55%; D = -2%
O=C(CNC(=O)C1(c2ccccc2)CC1)Nc1ccc(F)c(F)c1
  A = 0.0%; B = ·; C = ·; D = 0%
COc1ccc(NC(=S)NC(=O)c2ccc3c(c2)OCCO3)cc1
  A = 0.4%; B = ·; C = ·; D = 0%
COc1cccc(CC2(CO)CCCN(Cc3ccc(C)s3)C2)c1 (stereo not given)
  A = 4.5%; B = -9; C = -4%; D = -9%
CN(C)c1nc(-c2ccccc2)ns1
  A = -1.3%; B = -4; C = -30%; D = -10%
CC1(C)Cc2nc3oc4c(=O)n(CC(=O)Nc5ccc(Cl)cc5)cnc4c3cc2CO1
  A = -4.5%; B = 6; C = -2%; D = ?
O=C(NCCc1ccc(OC(F)F)cc1)C1CC(=O)N(c2ccc3c(c2)OCCO3)C1 (stereo not given)
  A = -1.5%; B = ·; C = ·; D = -10%
O=C(Nc1nnc(-c2ccco2)s1)C1CCCCC1
  A = 0.5%; B = -12; C = -46%; D = -11%
N#Cc1ccccc1COC(=O)c1cccc(S(=O)(=O)N2CCCC2)c1
  A = 3.2%; B = ·; C = ·; D = -1%

Quoted from the results shown, seven compounds:
Letters: A = Rango-impB inh; B = GLA inh pH 4.5; C = miR-21 FLuc; D = Rango dissoc inh
N#Cc1c(-c2ccccc2)nc(SCC(=O)NC2CCCCC2)[nH]c1=O
  A = -0.2%; B = 1[21.1 µM]; C = 6%; D = -14%
COc1ccccc1CNC(=O)C(c1ccccc1)c1ccccc1
  A = -1.4%; B = ·; C = 0%; D = ?
Cc1cc(S(=O)(=O)Nc2ccc(C(=O)NCCCN3CCOCC3)cc2)ccc1F
  A = 1.7%; B = ·; C = ·; D = 12%
CCCc1cc(=O)oc2cc(OCc3cccc(OC)c3)c(Cl)cc12
  A = -1.7%; B = -3; C = -5%; D = -21%
CCOc1ncccc1C(=O)OCc1ccc(C#N)cc1
  A = -3.6%; B = 2; C = 3%; D = 4%
COc1cc(OC)cc(-c2c(C#Cc3ccsc3)c3cc(-c4ccc(OC)cc4F)ccc3n2C)c1
  A = ?; B = ·; C = ·; D = ?
NC(=O)COC(=O)c1ccc(S(=O)(=O)N2CCCCCC2)cc1
  A = -1.2%; B = -7; C = -7%; D = 3%

(more compounds)
Letters: A = Rango-impB inh; B = GLA inh pH 4.5; C = miR-21 FLuc; D = Rango dissoc inh
CC(C)CC(O)C1CCN(C(=O)CCc2nnc(-c3ccccc3)o2)CC1 (stereo not given)
  A = ?; B = 2; C = 0%; D = ?
CCCn1c(SCC(=O)Nc2cc(S(=O)(=O)N(C)C)ccc2OC)n[nH]c1=O
  A = 2.1%; B = 3; C = 9%; D = 6%
Cc1cc(NC(=O)CCC(=O)N(CC(=O)NC2CCCC2)c2ccc(C)c(F)c2)no1
  A = 0.4%; B = ·; C = -2%; D = 7%
C[N+](C)(C)CC=O
  A = 1.0%; B = -9; C = ·; D = 18%
Cn1cccc1Cc1nnc(SCC(=O)NCc2ccc(F)cc2)n1-c1ccc(F)cc1
  A = 0.3%; B = -6; C = -1%; D = -8%
O=C(c1ccc2c(c1)OCO2)C1CCCN(C(=O)c2cnn(Cc3ccccc3)c2)C1 (stereo not given)
  A = -6.1%; B = 3; C = -4%; D = -7%
C=CCOc1ccc(/C=C2\SC(=S)N(NS(=O)(=O)c3ccccc3)C2=O)cc1
  A = 0.1%; B = ·; C = -3%; D = 13%
O=C(COc1ccc(S(=O)(=O)NC2CCCC2)cc1)NCC1CCCO1 (stereo not given)
  A = -2.2%; B = 3; C = -2%; D = 23%
CC(C(=O)NCc1ccc2c(c1)OCO2)c1ccc([N+](=O)[O-])cc1 (stereo not given)
  A = -5.5%; B = -8; C = -6%; D = -8%
Cc1c(C)c2ccc(OCC(=O)Nc3cccnc3)c(C)c2oc1=O
  A = ?; B = ·; C = -52%; D = -5%
CC(C)(C)OC(=O)N[C@@H](Cc1ccccc1)[C@H](O)c1ccco1
  A = -2.6%; B = 3; C = -8%; D = 9%
CCOc1ccccc1C1C(C(=O)Nc2ccccc2OC)=C(C)Nc2nc(CCCO)nn21 (stereo not given)
  A = -0.6%; B = -7; C = -1%; D = -3%
Cc1ccc(C(=O)NC(=S)NCc2ccccc2)cc1
  A = 2.2%; B = ·; C = -16%; D = -1%
CCN(CC)CCCNC(=O)CC1Oc2ccc(C)cc2NC1=O (stereo not given)
  A = -3.8%; B = -1; C = -2%; D = ?
COc1cc([N+](=O)[O-])ccc1NC(=O)Nc1ccc(C(=O)N2CCCC2)cc1
  A = -0.2%; B = ·; C = -2%; D = 20%
COc1ccc(S(=O)(=O)N/N=C\c2ccc3c(c2)OCO3)cc1
  A = -1.7%; B = 14; C = -1%; D = -5%
Fc1ccccc1-c1csc(=Nc2cccnc2)n1CC1CCCO1 (stereo not given)
  A = 2.4%; B = 7; C = 17%; D = 0%
NC1=C(Cl)C(=O)c2ccc(S(N)(=O)=O)cc2C1=O
  A = -1.3%; B = ·; C = ·; D = 1%
Cc1ccc(OCC(=O)Nc2cccc(S(=O)(=O)N3CCCCC3)c2)c([N+](=O)[O-])n1
  A = 1.0%; B = 1; C = -9%; D = 10%
O=C(NCc1cccs1)C(=O)NCC1OCCCN1S(=O)(=O)c1cccs1 (stereo not given)
  A = -2.9%; B = -9; C = -16%; D = ?
Cn1c(N)c(C(=O)COC(=O)COc2ccc3ccccc3c2)c(=O)n(C)c1=O
  A = ?; B = -3; C = 2%; D = 34%
CCOC(=O)/C=C/C(=O)OCC(=O)Nc1ccc([N+](=O)[O-])cc1
  A = 2.5%; B = 0; C = 7%; D = 6%
Clc1ccc(-c2ccnc(Oc3ccc4ccccc4c3)n2)cc1
  A = -0.4%; B = 5; C = -13%; D = 2%
CCOc1ccc(N2CC(C(=O)NCc3ccc4c(c3)OCO4)CC2=O)cc1 (stereo not given)
  A = 1.7%; B = ·; C = -4%; D = 34%
CCCCN1C(=N)N([C@@H](C)CN2CCC[C@H]2CN2C(N)=NC[C@H]2C(C)C)C[C@H]1[C@H](C)CC
  A = 0.4%; B = ·; C = ·; D = 15%
CN(C)S(=O)(=O)c1ccc(NC(=O)N2CCN(c3ccccc3)CC2)cc1
  A = 3.7%; B = 0; C = 0%; D = -2%
O=C(NC(=S)/C(=C1\CCCCCN1)[N+](=O)[O-])c1ccccc1
  A = -0.3%; B = ·; C = ·; D = -7%
Cc1nnc(SCC(=O)Nc2cccc(S(N)(=O)=O)c2)n1-c1ccccc1
  A = -0.7%; B = ·; C = 0%; D = -7%
CC(NC(=O)Nc1ccc2c(c1)OCO2)c1ccncc1 (stereo not given)
  A = -0.1%; B = 4; C = -22%; D = 2%
O=C(COc1ccc([N+](=O)[O-])cc1)Nc1ccccc1C(=O)NC1CC1
  A = 0.8%; B = ·; C = ·; D = 10%
CCOC(=O)CSc1nnc(Cn2c(=O)sc3ccccc32)n1C
  A = ?; B = 7; C = -6%; D = 3%
COc1ccc(C(CC(=O)O)NC(=O)COc2ccc(C)cc2)cc1OC (stereo not given)
  A = 0.6%; B = -4; C = -8%; D = 13%
O=C(c1ccc2c(c1)OCO2)N1CCCc2ccccc21
  A = 1.8%; B = 3; C = -16%; D = -19%
Cc1cccc(CSc2nc3sc(C)c(C)c3c(=O)n2Cc2ccco2)c1
  A = 0.5%; B = 1; C = -1%; D = 1%
C=CCN1C(=O)/C(=C/c2ccsc2)SC1=S
  A = 0.1%; B = 1[21.1 µM]; C = -3%; D = 24%
Cn1c(=O)c2c(=O)cc(NNC(=O)CC#N)[nH]c2n(C)c1=O
  A = 1.3%; B = 11; C = 0%; D = 15%
COCCNC(=S)N(CCN(C)C)Cc1cc2cc3c(cc2[nH]c1=O)OCO3
  A = 0.7%; B = ·; C = -5%; D = -10%
Clc1ccc(Oc2cnns2)c(Cl)c1
  A = -2.0%; B = 4; C = 0%; D = 0%

Source: PubChem BioAssay (National Center for Advancing Translational Sciences (NCATS))
